Assay outcomes as filed in PubChem.
Menin-MLL FL inh: menin-MLL binding inhibition, fluorescein peptide; 290,000 tested, under 10 active; FP activity change, % at 61.4 µM; Fluorescence polarization, fluorescein-MLL peptide displacement from menin; inconclusive = falling polarisation curve, or a change in total fluorescence; inactive = total fluorescence flat and polarisation flat or rising; no compound was filed as active; the % refers to the polarisation; negative = inhibition;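 note: % of control where 0% means no effect; inhibitors lower the polarisation; unlabelled MLL peptide was the positive control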
TRPML1 ag: human mucolipin-1 channel agonism | Q9GZU1 | TRPML1-expressing cells, Ca2+ dye fluorescence, FDSS; host cell line not named in the record; reference of the full effect not given here | activation, % (test concentration not listed) | 410,000 compounds, 0.12% hits; in the data active = activation above about 50%; inconclusive = about 30% to 50%; inactive = below about 30%; note: 0% is about no effect; the text of the record puts the active cut at 80%
Target sequence (Q9GZU1 whole entry, looked up): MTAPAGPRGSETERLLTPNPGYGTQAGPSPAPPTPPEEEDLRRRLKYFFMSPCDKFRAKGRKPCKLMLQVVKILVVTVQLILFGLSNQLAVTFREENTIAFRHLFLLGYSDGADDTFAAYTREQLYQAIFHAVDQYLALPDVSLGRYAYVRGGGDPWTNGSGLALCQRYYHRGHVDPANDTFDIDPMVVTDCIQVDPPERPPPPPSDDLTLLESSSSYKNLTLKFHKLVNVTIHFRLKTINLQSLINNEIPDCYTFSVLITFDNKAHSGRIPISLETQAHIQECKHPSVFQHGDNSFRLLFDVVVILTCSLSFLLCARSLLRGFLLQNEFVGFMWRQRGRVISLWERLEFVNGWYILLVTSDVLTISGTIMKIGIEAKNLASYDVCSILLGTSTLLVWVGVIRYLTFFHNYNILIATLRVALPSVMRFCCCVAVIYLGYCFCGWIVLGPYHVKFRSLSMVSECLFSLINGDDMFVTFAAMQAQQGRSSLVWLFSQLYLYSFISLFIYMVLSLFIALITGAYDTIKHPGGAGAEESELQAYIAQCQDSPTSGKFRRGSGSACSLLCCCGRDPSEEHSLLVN
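Calcium fluorescence on an FDSS kinetic reader gave the read-out. Tet-induced TRPML1-DL cells were plated overnight, dye-loaded (Ca8 with quencher, 45-90 min, room temperature, dark), then read 110 s after compound addition, and again 110 s after 4uM final 54-4 (EC80).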
gsp agonist: gsp mutant agonism; gsp mutant cells, cAMP HTRF, 30 min; control for the full effect not named in the record; 340,000 compounds, 0.13% hits; Potency, µM (titrated, usually from 76.9 µM), for the others: top-dose activation (cAMP increase), actives largely listed as activators; AID 624287; active = well fitted activation curve with a large enough effect; inconclusive = small, poorly fitted or top-dose-only effect, or another doubt; inactive = no such curve, though single readings can be large or run the other way; cell line not stated here;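 note: phosphodiesterase inhibitor Ro 20-1724 added with compounds to block cAMP breakdown; potency is the fitted concentration of half-maximal effect; nearly all actives have a fitted effect of over 60% in size; about a fifth of the inactives were tested at one dose only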
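Cells in DMEM/10% FBS with G418 were pretreated with compounds in DMSO plus […] (300 uM stock) for 30 min at 37C. cAMP was measured by HTRF (cAMP-d2 plus anti-cAMP antibody-K) after 30 min at room temperature.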
ClpP mod: qHTS Assay for Activators of ClpP; AID 651965, 2013; ATP-dependent Clp protease proteolytic subunit (Bacillus subtilis (strain 168)), P80244; purified B. subtilis ClpP, FRET peptide cleavage, 20 min; Potency, µM (series often up to 57.5 µM), for inactives: at the highest dose activity change, negative = active; 340,000 compounds, 1.9% hits; active = well fitted falling curve with a large enough effect; inconclusive = small, poorly fitted or top-dose-only effect; inactive = no such curve, though single readings can be large or run the other way; note: potency is the fitted concentration of half-maximal effect; the source files actives as falling curves though it sought activators and does not explain the sign; nearly all actives have a fitted effect of over 65% in size; many hits overshoot -100%
Target sequence (P80244 whole entry, looked up): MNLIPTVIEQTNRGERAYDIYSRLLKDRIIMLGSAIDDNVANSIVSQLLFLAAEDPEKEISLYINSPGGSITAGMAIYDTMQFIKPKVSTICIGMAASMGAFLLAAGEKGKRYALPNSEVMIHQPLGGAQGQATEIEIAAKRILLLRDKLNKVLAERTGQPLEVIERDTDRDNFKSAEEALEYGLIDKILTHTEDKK
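Buffer: 100 mM Tris/HCl pH8, 100 mM KCl, 0.05% low protease BSA, 2.5% glycerol, 0.01% Tween-20. ClpP 10 microg/mL final; 20 min RT; delta FRET normalized to ADEP and DMSO controls.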
TRPML1 inh: inhibitors of human TRPML1 channel | Q9GZU1 | TRPML1-inducible cells, Ca2+ dye fluorescence, FDSS; hits give low values; inhibition of EC80 agonist-evoked calcium signal | activity change, negative = inhibition, % (test concentration not listed) | 390,000 compounds, 0.02% hits | AID 624415; in the data active means activity change below about -50%; inconclusive means about -30% to -50%; inactive means above about -30%;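 note: stimulus is agonist 54-4 at its EC80 concentration; % is set by controls: 0 for no effect and ±100 for the full control effect; compound concentration not given in the record; the text of the record puts the active cut at -80%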
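Calcium fluorescence in TRPML1-DL cells induced overnight with Tet: a 110 s read after compound pin addition, then a 110 s antagonist read after challenge with 54-4 at 4 uM final (EC80).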
gsp antagonist: gsp mutant antagonism. gsp-mutant cells, cAMP HTRF, 30 min; control for the full effect not named in the record. Potency, µM (doses to about 76.9 µM), without a hit: at the highest dose activity change, negative = inhibition, most hits filed as inhibitors. 340,000 compounds, 0.4% hits; active = falling curve of any shape with a large fitted effect; inconclusive = falling curve, mostly with a smaller effect; inactive = flat or rising curve; cell line not stated here;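 note: intracellular cAMP measured with PDE inhibitor Ro 20-1724 present during compound exposure; potency is the fitted concentration of half-maximal effect; % is set by controls: 0 for no effect and ±100 for the full control effect; nearly all actives have a fitted effect of over 65% in size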
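G418-selected cells were plated in DMEM/10% FBS for 16-24 h at 37C, then treated with compounds plus the PDE inhibitor […] (300 uM solution added) for 30 min at 37C. Intracellular cAMP was measured by HTRF after 30 min lysis at room temperature.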
Active calls of the source: *; ? = inconclusive; . = no result given; & = joins results of further samples; [ ] = remark or other dose.

| SMILES | Menin-MLL FL inh | TRPML1 ag | gsp agonist | ClpP mod | TRPML1 inh | gsp antagonist |
| --- | --- | --- | --- | --- | --- | --- |
| CSCCC(NC(=O)c1ccco1)C(=O)Nc1cc(C)ccn1 (centres undefined) | . | -0.9 | -10.7% | -0.9% | 14.4 | 21.8% |
| CCOc1ccc(-c2nc(C#N)c(NCc3ccc4c(c3)OCO4)o2)cc1 | 11.5 | -1.0 | -0.1% | 4.2% | 23.3 | -1.6% |
| CC(=O)c1cccc(NC(=O)c2ccc(N(Cc3ccc(C)cc3)S(C)(=O)=O)cc2)c1 | 0.0 | -0.1 | 5.6% | -1.8% | 9.6 | -19.8% |
| CCOc1ccc(Cc2noc3c2C(=O)CCC3)cc1OCC | -1.2 | -0.5 | 8.5%[15.4 µM] | . | -1.5 | -0.6% |
| COCCNC(=O)c1sc2nc3n(c(=O)c2c1C)CCC3 | . | -0.3 | . | -26.4% | -16.4 | . |
| CCc1ccc(C2C(C#N)=C(N)SC(N)=C2C#N)s1 | -2.6 | 3.3 | ? | -4.2% | 20.4 | -9.2% |
| CCCc1nnc(NC(=O)CCC(=O)N2CCCCC2CC)s1 (centres undefined) | 2.9 | -1.3 | 6.0% | 0.6% | 17.7 | -13.1% |
| COCCNC(=O)CN(c1cc(Cl)ccc1OC)S(=O)(=O)c1ccc(C)c([N+](=O)[O-])c1 | -2.0 | 0.0 | ? | . | 5.2 | -3.4% |
| COc1cc(C(=O)N/N=C/c2sc(=O)n(-c3ccccc3)c2Cl)cc(OC)c1OC | 13.9 | -0.9 | 4.2%[15.4 µM] | -5.9% | 2.4 | -3.0% |
| CCCCNC(=O)c1cnc2sc(N3CCCCC3)nn2c1=O | . | -1.1 | . | 4.1% | -1.7 | . |
| CN(C)Cc1c(C(=O)N/N=C/c2ccccc2OCc2c(F)cccc2Cl)nnn1-c1nonc1N | -4.1 | 1.9 | 7.1%[15.4 µM] | . | 9.3 | ? |
| Cc1cc(C)c(C(=O)Nn2c(C)nc3ccccc3c2=O)cc1C | 1.9 | . | -3.5% | -0.9% | . | 0.0% |
| COc1cccc(C(CNc2ccc(S(=O)(=O)N3CCN(C)CC3)cc2[N+](=O)[O-])N(C)C)c1 (centres undefined) | . | 3.5 | -13.0% | -2.4% | -8.3 | 6.5% |
| O=C(c1ccccc1Oc1ccc([N+](=O)[O-])cc1)N1CCOCC1 | . | 0.2 | ? | 0.1% | -6.4 | 9.0% |
| Cc1ccccc1-c1nc(CN2CCC(C(=O)O)CC2)c(C)o1 | 0.3 | -0.5 | -59.7%[inhibitor] | -4.1% | 8.7 | 7.5% |
| COc1ccc(/C(C)=N/NC(=O)c2ccc(CSc3cccc4cccnc34)cc2)cc1OC | 3.8 | 2.8 | -29.0% | 22.4µM* | -1.3 | -7.4% |
| COC(=O)[C@H](C)NC(=O)NC1CCCc2ccccc21 (some centres undefined) | 3.4 | 0.4 | 18.8% | -0.6% | -14.2 | -5.1% |
| CCC(=O)N1c2ccc(S(=O)(=O)CCC(=O)Nc3ccc(OC)cc3OC)cc2CC1C (centres undefined) | . | 1.1&-0.3 | -0.2% | -0.7%&0.2% | -11.1&11.4 | -0.9% |
| Cc1cccc(C)c1NC(=O)NCCCN1CCN(c2ccccc2)CC1 | -2.2 | -0.5 | -21.1% | 0.1%&-0.6% | 12.2 | 9.9% |
| CCC1C(=O)C[C@H]2CCN3C(=O)CCCC1C23 (some centres undefined) | -5.3[138 µM] | -0.6 | . | -0.4% | -6.8 | 5.1% |
| Fc1ccccc1SCc1nnc(-c2ccccc2Br)o1 | -3.3 | 1.0 | 7.8%[15.4 µM] | . | 19.4 | . |
| CCc1ccc(N2C(=O)C(Cl)=C(N3CCCCCC3)C2=O)cc1 | 6.3 | 14.1 | ? | 1.5% | -6.8 | 5.3% |
| CCCCn1c(-c2ccco2)nc2ccccc2c1=O | 4.2 | -0.1 | 5.6% | ? | -3.2 | -17.8% |
| COc1ccc(CC(=O)Nc2ccc(-c3nnc(-c4ccccc4)o3)cc2)cc1 | . | -0.3 | ? | 7.08µM* | -3.1 | -9.6% |
| COc1ccc(OC)c(S(=O)(=O)Nc2c(F)cccc2F)c1 | -0.4 | 0.9 | -3.9% | -4.1% | 2.8 | 4.6% |
| CCOc1cccc(OCCCCN2CCCCC2)c1 | -3.1 | 0.0 | 2.4% | 1.1% | -2.1 | 9.9% |
| Cc1ccc(S(=O)(=O)N2CCN(C(=O)c3cccs3)CC2)cc1C | -2.3 | -0.2 | -6.0%[15.4 µM] | . | 2.4 | 2.8% |
| CCC(C)[C@@H](CN)NCC1(c2ccccc2)CC1 (some centres undefined) | . | 0.2 | 25.2% | -2.5% | 38.2 | 14.9% |
| Cc1ccc(S(=O)(=O)C(C#N)c2nc3ccccc3nc2OC(C)C)cc1 (centres undefined) | ? | 2.0 | 3.9% | 2.6% | -3.6 | -6.5% |
| O=C(C(c1ccccc1)c1ccccc1)N1CCN(Cc2ccccn2)CC1 | 4.7 | -0.3 | 4.1% | -0.4% | -2.0 | 4.3% |
| COc1cc(/C=N\NC(=O)CC(=O)NCCc2ccccc2)ccc1O | 2.1 | -0.2 | 3.4%[15.4 µM] | . | 4.7 | -0.5% |
| COc1ccc(N2CCN(C(=O)c3cnn(-c4ccc(F)cc4)c3-n3cccc3)CC2)cc1 | . | 1.9 | . | -0.9% | -12.3 | . |
| COc1ccc(S(=O)(=O)N2CCCCC2)cc1NC(=O)c1cc(C)on1 | 0.8 | 0.1 | 11.0% | . | -0.4 | -13.7% |
| CC(C)OCC(O)CN (centres undefined) | 2.7 | -0.2 | 10.9% | -1.2% | 35.4 | -6.0% |
| O=C(COc1cccc(Br)c1)Nc1ccc(Cl)c(S(=O)(=O)N2CCOCC2)c1 | . | 0.3 | ? | . | -1.1 | -10.6% |
| COc1ccccc1OC(C)C(=O)N1CCC(Cc2ccccc2)CC1 (centres undefined) | 7.6 | 0.6 | 26.4% | . | -23.7 | -5.3% |
| C/C(=N\NC(=O)C(=O)Nc1cccc(Cl)c1)c1ccncc1 | 6.0 | -0.5 | 10.8% | -3.3% | 3.3 | -3.2% |
| COc1ccc(C2CC(c3ccccc3)=NN2C(=O)COC(=O)c2ccc(Cl)nc2)cc1 (centres undefined) | 10.3 | 1.4 | -12.0%[15.4 µM] | ? | -13.4 | -1.2% |
| CCOC(=O)c1ccc2nc3c(cc2c1)CCS3 | 4.8 | 0.0 | 21.4% | -28.8% | -12.2 | 5.8% |
| O=C(NOCc1ccccc1)c1ccccc1 | . | -0.1 | 16.8% | -0.3% | -0.8 | 5.0% |
| CSc1ccc(CCNC(=O)CCc2nnc3ccc(N4CCC5(CC4)OCCO5)nn23)cc1 | -4.7 | 0.6 | ? | -9.0% | -7.2 | -5.1% |
| O=C(O)C(Cc1ccc(O)cc1)N1C(=O)c2ccccc2C1=O (centres undefined) | 0.4 | 0.2 | 3.7% | 0.9% | -2.9 | 11.6% |
| CCOc1ccc(CNC(=O)c2cc(=O)[nH]c3ccc(S(=O)(=O)N4CCCC4)cc23)cc1 | . | -0.2 | . | -0.8% | 11.4 | . |
| Cc1occc1C(=O)N1CCN(c2ccc(Cl)c(Cl)c2)CC1 | 9.9 | 0.5 | 3.7% | -2.9% | 12.0 | ? |
| COC(=O)c1ccccc1CSc1nsc(/C=C/N(C)C)c1C#N | ? | 2.0 | 28.3% | 1.2% | 2.5 | -12.0% |
| O=C(C1=C(O)C(=O)N(CCc2ccccc2)C1c1cccs1)c1ccco1 (centres undefined) | -0.1 | 3.0 | 7.5%[15.4 µM] | . | -10.2 | -3.3% |
| Cc1cc(C)nc(NC(=O)Cc2cccs2)n1 | 2.5 | -0.5 | -41.1%[inhibitor] | -6.6% | -4.5 | 8.0% |
| O=C(NC1CCCCC1)c1ccccc1NC(=S)NC(=O)C1CCC1 | 1.1 | -0.6 | 6.4% | -0.7% | 20.5 | 0.2% |
| COc1ccc(NC(=O)C2(C)Cc3c(-c4ccc(N(C)C)cc4)ccnc3O2)cn1 (centres undefined) | . | 1.2 | . | 4.9% | 19.7 | . |
| O=C(O)CCN1CC2([N+](=O)[O-])CC=C(OCCO)C([N+](=O)[O-])(C1)C2 (centres undefined) | -1.9 | 1.4 | -4.2%[15.4 µM] | . | -0.9 | 5.4% |
| Nn1cc(-c2ccccc2)nc1SCC(=O)N1CCN(S(=O)(=O)c2ccc(Cl)cc2)CC1 | -0.4 | -0.5 | 16.2% | -1.5% | 6.3 | ? |
| COc1ccc(C)cc1NC(=O)Cn1c(=O)nc(-c2ccccc2F)c2cc(Cl)ccc21 | . | 0.9 | . | -7.2% | -4.8 | . |
| COc1cc(C(=O)NCc2cccs2)ccc1OCc1c(C)noc1C | . | 0.6 | 9.2% | -1.4% | 30.6 | 4.9% |
| COCCn1c(SCc2c(F)cccc2Cl)nc2c1c(=O)[nH]c(=O)n2C | 1.4 | 0.7 | 1.8% | -0.5% | -1.9 | 3.0% |
| c1ccc(CN2CCC(N3CCN(Cc4ccc5c(c4)OCO5)CC3)CC2)cc1 | 5.1 | -0.3 | 0.7%[15.4 µM] | . | 3.8 | 1.3% |
| CCN(CC(=O)NC(c1ccccc1)c1ccccc1)Cc1nc2ccccc2c(=O)[nH]1 | 6.6 | 1.4 | 1.4% | -1.4% | 17.8 | -12.3% |
| CCCc1cc(=O)oc2cc(C)cc(OCC(=O)Nc3ccc(CN4CCOCC4)cc3)c12 | . | -1.3 | 12.0% | 3.7% | -1.2 | 8.5% |
| COc1ccc(C(=O)/C=C/c2cn(CN3CCN(C)CC3)c3ccccc23)cc1 | ? | 0.4 | 2.5% | -2.8% | -7.3 | ? |
| CCn1cc(C(=O)N2CCN(c3cccc(C(F)(F)F)c3)CC2)c2cc(OC)c(OC)cc2c1=O | . | 0.5 | . | -2.1% | -9.9 | . |
| O=C(Nc1ccccc1)c1cc2n(n1)C(C(F)(F)F)CC(C1CC1)N2 (centres undefined) | 4.6 | 0.9 | ? | 1.3% | -16.3 | 4.6% |
| O=C(COCc1cc(-c2cccs2)on1)NCc1ccc(F)cc1 | . | 0.1 | . | -1.5% | 1.3 | . |
| Cc1cccc(NC(=O)C2CCN(c3nnc(-n4c(C)ccc4C)s3)CC2)c1C | . | 0.5 | . | 6.3% | ? | . |
| O=S1(=O)CCC(NC(=S)NCCNC(=S)NC2CCS(=O)(=O)C2)C1 (centres undefined) | 0.3 | -0.4 | -14.5% | -0.8% | -7.2 | 4.6% |
